Screening results (PubChem)
GIV Gai3 FP: inhibitors of GIV peptide binding to Galpha-i3, primary screen, biochemical, fluorescence polarization, FITC-GIV GBA peptide, rat Galphai3; 90 min; active compounds read low; scaled: aluminum fluoride 0%, vehicle 100%; AID 1224905, 2016; percent of control (FP), % (concentration not given with the values); Guanine nucleotide-binding protein G(i) subunit alpha-3 (Rattus norvegicus), P08753; 210,000 tested, 0.42% active;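 active = replicate mean at 85% of control or lower, very high polarization wells dropped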;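 note: wells of about 15 µL received 100 nL stock; the first replicate is given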
Target sequence (P08753 whole entry, looked up): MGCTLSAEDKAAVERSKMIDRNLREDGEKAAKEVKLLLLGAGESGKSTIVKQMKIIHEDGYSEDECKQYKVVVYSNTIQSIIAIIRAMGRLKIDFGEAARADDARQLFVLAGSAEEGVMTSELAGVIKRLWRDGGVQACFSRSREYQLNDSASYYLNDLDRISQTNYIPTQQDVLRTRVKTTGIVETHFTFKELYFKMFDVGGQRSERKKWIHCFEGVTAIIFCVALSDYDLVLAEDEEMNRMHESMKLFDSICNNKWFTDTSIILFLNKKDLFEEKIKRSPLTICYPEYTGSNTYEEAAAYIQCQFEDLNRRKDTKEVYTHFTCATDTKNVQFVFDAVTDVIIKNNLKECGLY
Starred values were filed as active, the others as inactive. Only part of the results is shown (hit frequency here may not be typical).

GIV Gai3 FP,Compound
123,CN(C(=O)c1ccc(N=Cc2nc(-c3ccc([N+](=O)[O-])cc3)oc2O)cc1)c1ccccc1
106,O=S(=O)(NCc1ccc(Br)cc1)c1ccc2c(c1)-c1oncc1CO2
106,O=C1OC(c2ccccc2)=C/C1=C1\c2ccccc2-c2ncccc21
112,CN(C)S(=O)(=O)c1ccc(C(=O)NCc2nnc(SCC(=O)Nc3ccc(F)cc3)n2-c2ccc(F)cc2)cc1
109,Cc1ccc(CSc2nnc3c(=O)n(-c4ccc(C(C)C)cc4)ccn23)cc1
100,CCOC(=O)c1[nH]c(C)c(CCC(=O)Nc2cccnc2)c1C
107,COc1ccccc1NC(=O)CSc1nc2ccccc2n1S(=O)(=O)c1ccc(NC(C)=O)c(Cl)c1
112,N#CCSc1nc2cc(C(=O)N3CCC4(CC3)OCCO4)ccc2c(=O)n1Cc1ccc2c(c1)OCO2
109,CCCCCCNC(=O)c1ccc(N2CC3CC(C2)c2cccc(=O)n2C3)c(NS(=O)(=O)c2ccc(Cl)cc2)c1 (centres undefined)
107,CN(C)C(=O)c1cc2c(s1)CCC(C(=O)N(C)C)C2 (centres undefined)
124,CCCCN(C)C(=O)CSc1nc(NCc2ccccc2)c2ccccc2n1
111,CCOC(=O)CSc1nc2c(c(-c3cccs3)c1C#N)CN(C)CC2
100,COc1cc2c(cc1OC)C(=NC(CCSC)C(=O)O)NC(C)(C)C2 (centres undefined)
106,CCOC(=O)CN(C)c1ccc(NC(C)=O)cc1C(=O)O
105,Cn1c(SCC(=O)Nc2ccc(F)cc2)nnc(CCC(=O)N2CCCC2)c1=O
64*,CN(c1ccc(Br)cc1)S(=O)(=O)c1ccc2[nH]cc(C(=O)NCc3ccccn3)c(=O)c2c1
120,CCN(c1ccccc1)S(=O)(=O)c1ccc2[nH]cc(C(=O)N(CCc3ccccc3)Cc3ccccc3)c(=O)c2c1
97,Cc1c(C(=O)Nc2cccc(C(F)(F)F)c2)sc2ncn(CC(=O)N3CCN(c4ccccn4)CC3)c(=O)c12
-32*,CC[n+]1c(/C=C/C=C2\N(C)c3ccccc3C2(C)C)n(-c2ccccc2)c2ccc(C)cc21
108,COc1ccc(CN2C(=O)C3C(c4ccc(C)cc4)OC4(C(=O)c5ccccc5C4=O)C3C2=O)cc1 (centres undefined)

Later entries.
GIV Gai3 FP,Compound
102,Cc1ccc(C)c(S(=O)(=O)n2c([N+](=O)[O-])cnc2C)c1
97,CC(C)NC(=O)CCn1c(=O)c2ccccc2n2c(=O)n(CC(=O)NC3CCCC3)nc12
127,Cc1ccc(S(=O)(=O)N2c3ccccc3-c3ccccc3S2(=O)=O)cc1
127,CCCCOc1ccc(C2C(N3C(=O)c4ccccc4C3=O)C(=O)N2c2ccc(C)c(Cl)c2)cc1 (centres undefined)
106,COc1ccccc1C(=O)OCCN1C(=O)C2C3c4ccccc4C(c4ccccc43)C2C1=O (centres undefined)
95,CCc1ccc(CNC(=O)C2CCCN(c3ncnc4c3oc3ccccc34)C2)cc1 (centres undefined)
110,Cc1ccc(Cn2c(=S)[nH]c3cc(Cl)ccc3c2=O)cc1
104,Cc1cc(C)nc(NS(=O)(=O)c2ccc(NC(=O)CCCN3C(=O)c4ccccc4C3=O)cc2)n1
104,CN(C)c1ccc(N2C(=O)C3C4c5ccccc5C(c5ccccc54)C3C2=O)cc1 (centres undefined)
109,CC1(C)CC(=O)C2=C(C1)OC1=C(C(=O)CC(C)(C)C1)C2c1ccc(OCC(=O)OCc2ccccc2)cc1
108,COc1ccc(C2=N/C(=C\C(Cl)=C\c3ccccc3)C(=O)O2)cc1Br
102,COc1ccc(C2=NN(C(=O)CSc3nnc(CNC(=O)c4ccco4)n3C)C(c3cccc(OC)c3OC)C2)cc1 (centres undefined)
105,COc1ccc(Cl)cc1S(=O)(=O)n1c([N+](=O)[O-])cnc1C
105,COc1ccc(-c2nn(C3CC(=O)C4OCC3O4)c(=S)n2-c2ccccc2)cc1OC (centres undefined)
110,COc1ccc(Br)cc1C1C(N2C(=O)c3ccc([N+](=O)[O-])cc3C2=O)C(=O)N1c1ccc(Br)c(C)c1 (centres undefined)
103,O=C(NCCc1csc(C2CCN(C(=O)c3ccsc3)CC2)n1)C1CCC1
113,CCOC(=O)C1=C(C)OC(N)=C(C#N)C1c1ccc2c(c1)OCO2 (centres undefined)
103,O=C(CCc1nc(CSc2nnc(-c3cccnc3)o2)no1)Nc1cc(F)cc(F)c1
100,CCc1nc(-c2csc(S(=O)(=O)N3CCc4ccccc43)c2)no1
109,COC(=O)c1ccc(C(=O)Nc2ccc(S(=O)(=O)Nc3nc(C)cc(C)n3)cc2)cc1

Continued.
GIV Gai3 FP,Compound
102,COC(=O)Cc1nc(Nc2cc(OC)c(OC)c(OC)c2)c2c(C)c(C)sc2n1
108,Cc1c(C(=O)Nc2ccc3c(c2)OCCO3)sc2ncnc(N3CCc4ccccc4C3)c12
97,CC(C)n1cnnc1C1CCCN(Cc2cn[nH]c2-c2cccs2)C1 (centres undefined)
107,COc1ccc(CNC(=O)C2(C)Cc3ccccc3C(=O)N2C2CCCCC2)cc1 (centres undefined)
105,Cc1cccc(NC(=O)NCc2nnnn2-c2ccccc2)c1
105,O=[N+]([O-])c1c(NCCCO)cc(N2CCN(c3ccccn3)CC2)c2nonc12
109,COc1ccc(COC(=O)C2=C(C)NC3=C(C(=O)CC(C)(C)C3)C2c2coc3ccc(C)cc3c2=O)cc1 (centres undefined)
105,COc1ccc(N2C(=O)c3ccccc3C2C(=O)NCCC(C)C)cc1OC (centres undefined)
106,O=C(Nc1ccccc1Cl)N1CCN(Cc2nc3cccnc3n2-c2ccccc2)CC1
119,COc1cccc(C2(O)CC(C(F)(F)F)=NN2C(=O)c2ccc(C(C)(C)C)cc2)c1 (centres undefined)
117,CCOC(=O)CN1C(c2cccc(Cl)c2)=Nc2ccc(Br)cc2C1c1ccccc1 (centres undefined)
102,COc1ccc(C2C(C#N)=C(N)OC3=C2C(=O)CC(c2ccco2)C3)cc1OC(=O)N1CCOCC1 (centres undefined)
106,C=Cc1ccc(Cn2nc3c(S(=O)(=O)N4CCCCCC4)cccn3c2=O)cc1
104,COc1ccc(C2(c3ccccc3C)C=Cc3c(ccc4ccc(OC(=O)C(C)C)cc34)O2)cc1 (centres undefined)
105,Cc1cc(C(=O)N2CCC(C)CC2)c(C)n1CCN1CCCC1
138,CC(C)c1cc(C2CCCN2Cc2cn[nH]c2-c2ccccc2)no1 (centres undefined)
102,CCOc1cccc(CN2CCCC2c2cc(C)on2)c1O (centres undefined)
108,Cc1ccc(Nc2cc(N3CCCC3)c3noc4c3c2C(=O)c2ccccc2-4)cc1
100,Cc1cc(C)cc(C(=O)NCCc2sc3nc(-c4ccc(F)cc4)nn3c2C)c1
105,COc1ccc(-n2c(=O)n(CC(=O)NCc3ccc(Cl)cc3)c(=O)c3cccnc32)cc1

Ordered by molar mass (highest first): 13 of the compounds above.
GIV Gai3 FP,Compound
102,COc1ccc(C2C(C#N)=C(N)OC3=C2C(=O)CC(c2ccco2)C3)cc1OC(=O)N1CCOCC1 (centres undefined)
117,CCOC(=O)CN1C(c2cccc(Cl)c2)=Nc2ccc(Br)cc2C1c1ccccc1 (centres undefined)
104,COc1ccc(C2(c3ccccc3C)C=Cc3c(ccc4ccc(OC(=O)C(C)C)cc34)O2)cc1 (centres undefined)
108,Cc1c(C(=O)Nc2ccc3c(c2)OCCO3)sc2ncnc(N3CCc4ccccc4C3)c12
105,COc1ccc(-n2c(=O)n(CC(=O)NCc3ccc(Cl)cc3)c(=O)c3cccnc32)cc1
106,O=C(Nc1ccccc1Cl)N1CCN(Cc2nc3cccnc3n2-c2ccccc2)CC1
119,COc1cccc(C2(O)CC(C(F)(F)F)=NN2C(=O)c2ccc(C(C)(C)C)cc2)c1 (centres undefined)
102,COC(=O)Cc1nc(Nc2cc(OC)c(OC)c(OC)c2)c2c(C)c(C)sc2n1
100,Cc1cc(C)cc(C(=O)NCCc2sc3nc(-c4ccc(F)cc4)nn3c2C)c1
107,COc1ccc(CNC(=O)C2(C)Cc3ccccc3C(=O)N2C2CCCCC2)cc1 (centres undefined)
105,O=[N+]([O-])c1c(NCCCO)cc(N2CCN(c3ccccn3)CC2)c2nonc12
108,Cc1ccc(Nc2cc(N3CCCC3)c3noc4c3c2C(=O)c2ccccc2-4)cc1
105,Cc1cc(C(=O)N2CCC(C)CC2)c(C)n1CCN1CCCC1

More records
GIV Gai3 FP,Compound
112,c1coc(C2=Nc3ccccc3SC(c3ccc4c(c3)OCO4)C2)c1 (centres undefined)
109,CCN(CC)CCNC(=O)c1ccc2c(c1)[nH]c(=S)n1c3ccccc3nc21
101,Cc1cccc(CNC(=O)C2CCCN(S(=O)(=O)Cc3ccccc3)C2)c1 (centres undefined)
101,CCn1cc(S(=O)(=O)N2CCCn3nc(-c4ccncc4)cc3C2)cn1
116,CCN1C(=O)/C(=C2/Sc3ccccc3N2C2CCCCC2)SC1=S
110,COC(=O)CC12CC3CC(C1)CC(CC(=O)OC)(C3)C2
45*,Nc1c(C(=O)NC2CC2)sc2nc(-c3cccs3)cc(C(F)(F)F)c12
109,O=[N+]([O-])c1cc(S(=O)(=O)N2CCCCCC2)cc2c1-c1c(cc(S(=O)(=O)N3CCCCCC3)cc1[N+](=O)[O-])C2=NO
99,Cc1ccccc1-c1cc(N2CCN(C(=O)NC(C)(C)C)CC2)ncn1
146,Cc1c(Cc2ccccc2)c(N2CCCCC2)n2c(nc3ccccc32)c1C#N
104,COc1ccc(OC)c(NS(=O)(=O)c2c(C)nn(-c3ccc(-c4ccc(C)cc4)nn3)c2C)c1
99,O=C1CC(c2ccc(OCCc3ccccc3)cc2)c2cnn(-c3nc4ccccc4s3)c2N1 (centres undefined)
104,COc1ccc(NC(=O)C2CCCN(c3nccnc3Sc3ccc(C)cc3)C2)cc1 (centres undefined)
104,CCN(CC)C(=O)CSc1nc2ccccc2nc1Cc1ccc(F)cc1
97,c1ccn2cc(CN3CCSCC3)nc2c1
112,CC1(C)C2CCC1(CS(=O)(=O)Nc1cc(C(=O)NCc3ccco3)ccc1N1CC3CC(C1)c1cccc(=O)n1C3)C(=O)C2 (centres undefined)
99,c1cc(N2CCOCC2)ncc1-c1noc(CN2CCSCC2)n1
103,CC(C)(C)n1nc2c(c1NC(=O)c1ccc(Br)cc1)CS(=O)(=O)C2
101,Cc1nn(-c2ccc(Cl)cc2)c2sc(C(=O)NC3CCCCC3)cc12
105,CCN(CC)S(=O)(=O)c1ccc(NC(=O)N2CCCC(C(=O)Nc3cccc(Cl)c3)C2)s1 (centres undefined)

The results go on:
GIV Gai3 FP,Compound
104,Cc1ccc(C)c(-n2c(CNC(=O)c3ccc(S(=O)(=O)N(C)C)cc3)nnc2SCC(=O)Nc2nccs2)c1
109,COCCNC(=O)c1ccc(N2CC3CC(C2)c2cccc(=O)n2C3)c(NS(=O)(=O)CC23CCC(CC2=O)C3(C)C)c1 (centres undefined)
117,COCCn1c(=S)[nH]c2cc(C(=O)N3CCN(Cc4ccc5c(c4)OCO5)CC3)ccc2c1=O
101,CCOc1cc(/C=c2\sc3nc4ccccc4n3c2=O)ccc1OCc1ccccc1F
106,CCN(Cc1ccc(F)cc1)Cc1cc(=O)n2nc(C3CC3)sc2n1
117,Cc1ccc2c(=O)c(-c3nc(-c4cccc(F)c4)no3)cn(CC(=O)Nc3ccc4c(c3)CCC4)c2n1
103,CCCn1c(CCc2ccccc2NS(=O)(=O)CCC)nc2ccccc21
99,Cc1nn(C(C)C(=O)N2CCN(c3ccccn3)CC2)c(=O)c2c(C)n(-c3ccccc3)nc12 (centres undefined)
102,COCc1cc(C)nc2sc(-c3nc4ccccc4[nH]3)c(NC(=O)c3ccccc3)c12
109,O=C(c1ccc(F)cc1)N1CCN=C1N1CCCC1
100,Cc1cccc(NS(=O)(=O)c2cc(-c3nc(C)c(C)s3)sc2C)c1C
108,Nc1nc(CSc2nc3ccccc3s2)nc(N2CCCCC2)n1
102,CCOC(=O)c1[nH]c(C)c(CN(Cc2ccc(OC)cc2)C(=O)Nc2ccccc2F)c1C
106,CCn1c(N2CCCC(C(=O)Nc3cccc(OC)c3)C2)cc(=O)n(C)c1=O (centres undefined)
106,CCOC(=O)c1ccc(NC(=O)CCc2ccc3nc(CC)[nH]c3c2)cc1
120,O=C1CSC2(C(=O)Nc3ccccc32)N1c1ccc(Cl)cc1 (centres undefined)
107,COC(=O)c1cc(C(=O)OC)cc(N2C(=O)CSC2c2cccc(C(F)(F)F)c2)c1 (centres undefined)
112,O=C(CCCn1c(SCC(=O)Nc2ccccc2Cl)nc2ccccc2c1=O)NCCCN1CCOCC1
100,O=C(NCc1ccccc1)c1cccc(Oc2cc(-c3cccc(F)c3)ncn2)c1
106,CCOC(=O)C1=C(c2ccccc2)S/C(=C2/C(=S)C(C)(C)N(C(=O)C(F)(F)F)c3ccc(OC)cc32)S1

The listing continues:
GIV Gai3 FP,Compound
95,OCCN1CCN(c2ncnc3c2cnn3-c2ccccc2Cl)CC1
119,COC(=O)c1ccc(C2C(C#N)=C(N)Oc3n[nH]c(-c4ccc(OC)c(OC)c4)c32)cc1 (centres undefined)
110,CSc1ccc(-c2nc(-c3ccccc3)c(-c3ccc(F)cc3)[nH]2)cc1
107,S=C1N=C(Nc2ccccc2)C2(CCCCC2)N1c1cccc(Cl)c1
106,O=C(Nc1cc(F)cc(F)c1)c1cccc(Nc2ncc(-c3ccc(F)cc3)cn2)c1
101,CN(CCc1noc(C(=O)NCc2ccc3c(c2)OCO3)n1)C(=O)NCCc1ccccc1
97,Cc1ccc(-c2noc(C3CC3)n2)cc1S(=O)(=O)NC(C)C(=O)N1CCCC1 (centres undefined)
110,O=C1c2ccccc2C(=O)c2c(NC(=O)C3CC3(c3ccccc3)c3ccccc3)cccc21 (centres undefined)
120,COc1ccccc1O[C@@H]1O[C@H](COC(C)=O)[C@@H](OC(C)=O)[C@H](OC(C)=O)[C@H]1NC(C)=O
100,Cc1ccc(NC(=O)c2ccc(C3Nc4ccccc4S(=O)(=O)N3)cc2)cc1C (centres undefined)
107,CCCCOc1ccc(C(=O)Oc2ccc(C#N)cc2)c(Cl)c1
